NOMO-1 viab: STK33 inhibitor candidate reducing NOMO-1 cell viability; 37,000 tested, 7.5% active; NOMO-1 AML viability, CellTiter-Glo luminescence, 72 h; inhibition, % (test concentration not listed);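 active = most replicates above 80%; inconclusive = exactly half above 80%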;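 note: wells of about 30 µL received 25 nL stock; 0% = median of vehicle wells and 100% = reference inhibitor level; the first replicate is given; inactives centre near 10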
The depositor's hits bear a star; ? = inconclusive.

SMILES | NOMO-1 viab
C[C@@H]1CCCCO[C@H](CN(C)C(=O)Nc2ccc3c(c2)OCO3)[C@@H](C)CN([C@H](C)CO)C(=O)c2cc(NC(=O)Nc3ccccc3)ccc2O1 | 9
O=C(CN1CCc2ccccc21)Nc1scc2c1c(=O)oc1ccccc12 | 5
C[C@H]1CN([C@@H](C)CO)C(=O)c2cc(NS(C)(=O)=O)ccc2O[C@H]1CN(C)S(=O)(=O)c1ccc(F)cc1 | 6
COc1ccc(NC(=O)Nc2ccc3c(c2)C(=O)N([C@@H](C)CO)C[C@H](C)[C@H](CN(C)S(=O)(=O)c2ccc(OC)cc2)O3)cc1 | ?
C[C@@H]1CN([C@H](C)CO)C(=O)c2cccc(NC(=O)Nc3cccc4ccccc34)c2O[C@H]1CN(C)C(=O)Nc1ccccc1 | 30
c1ccc(C2OCC3OC(c4ccccc4)OC3CO2)cc1 (stereo unspecified) | 17
C[C@@H]1CN([C@@H](C)CO)C(=O)Cc2cc(NC(=O)Nc3ccc(F)cc3)ccc2O[C@@H]1CN(C)S(=O)(=O)c1ccc(F)cc1 | 7
Cc1ccc(S(=O)(=O)N(C)C[C@@H]2Oc3c(NC(=O)Nc4ccc(F)cc4)cccc3C(=O)N([C@H](C)CO)C[C@@H]2C)cc1 | 82*
COc1ccc(OC)c(NC(=O)C(C)NS(=O)(=O)c2ccc(C)cc2)c1 (stereo unspecified) | -16
C[C@@H]1CN([C@H](C)CO)C(=O)c2cc(NC(=O)Nc3ccc(C(F)(F)F)cc3)ccc2O[C@@H]1CN(C)S(=O)(=O)c1ccc(Cl)cc1 | 53
Cc1ccc(S(=O)(=O)N(C)c2ccc(C(=O)Nc3cccnc3)cc2)cc1 | 14
C[C@@H]1CN([C@@H](C)CO)C(=O)c2cccc(NC(=O)c3ccc(-c4nccs4)cc3)c2O[C@H]1CN(C)Cc1ccc(C(=O)Nc2ccccc2N)cc1 | 126*
C=CCn1cnc2c1c(=O)[nH]c(=O)n2C | 26
CCCCn1c2ccccc2c2nnc(SCC(=O)c3ccc(Cl)cc3)nc21 | -12
C[C@H]1CN([C@@H](C)CO)C(=O)c2cccc(NC(=O)Nc3ccc(C(F)(F)F)cc3)c2O[C@@H]1CN(C)S(=O)(=O)c1cccs1 | 49

Eleven of the compounds above, tab-delimited:
molecule	NOMO-1 viab
C[C@@H]1CCCCO[C@H](CN(C)C(=O)Nc2ccc3c(c2)OCO3)[C@@H](C)CN([C@H](C)CO)C(=O)c2cc(NC(=O)Nc3ccccc3)ccc2O1	9
O=C(CN1CCc2ccccc21)Nc1scc2c1c(=O)oc1ccccc12	5
C[C@H]1CN([C@@H](C)CO)C(=O)c2cc(NS(C)(=O)=O)ccc2O[C@H]1CN(C)S(=O)(=O)c1ccc(F)cc1	6
COc1ccc(NC(=O)Nc2ccc3c(c2)C(=O)N([C@@H](C)CO)C[C@H](C)[C@H](CN(C)S(=O)(=O)c2ccc(OC)cc2)O3)cc1	?
C[C@@H]1CN([C@H](C)CO)C(=O)c2cccc(NC(=O)Nc3cccc4ccccc34)c2O[C@H]1CN(C)C(=O)Nc1ccccc1	30
c1ccc(C2OCC3OC(c4ccccc4)OC3CO2)cc1 (stereo unspecified)	17
C[C@@H]1CN([C@@H](C)CO)C(=O)Cc2cc(NC(=O)Nc3ccc(F)cc3)ccc2O[C@@H]1CN(C)S(=O)(=O)c1ccc(F)cc1	7
Cc1ccc(S(=O)(=O)N(C)C[C@@H]2Oc3c(NC(=O)Nc4ccc(F)cc4)cccc3C(=O)N([C@H](C)CO)C[C@@H]2C)cc1	82*
COc1ccc(OC)c(NC(=O)C(C)NS(=O)(=O)c2ccc(C)cc2)c1 (stereo unspecified)	-16
C[C@@H]1CN([C@H](C)CO)C(=O)c2cc(NC(=O)Nc3ccc(C(F)(F)F)cc3)ccc2O[C@@H]1CN(C)S(=O)(=O)c1ccc(Cl)cc1	53
Cc1ccc(S(=O)(=O)N(C)c2ccc(C(=O)Nc3cccnc3)cc2)cc1	14

(further entries)
SMILES | NOMO-1 viab
C[C@@H]1CCCCO[C@@H](CN(C)S(=O)(=O)c2ccc(Cl)cc2)[C@@H](C)CN([C@H](C)CO)C(=O)c2cc(NS(=O)(=O)c3ccc(F)cc3)ccc2O1 | 103*
COc1ccc(NC(=O)Nc2cccc3c2O[C@@H](CN(C)C(=O)Nc2ccc4c(c2)OCO4)[C@H](C)CN([C@H](C)CO)C3=O)cc1 | -11
O=C(NCCCN1CCOCC1)C(=O)NC1CC1 | 19
Cc1ccc(S(=O)(=O)N(C)C[C@H]2OCCCC[C@@H](C)Oc3ccc(NC(=O)c4ccccc4)cc3C(=O)N([C@H](C)CO)C[C@@H]2C)cc1 | 23
COc1ccc(C)cc1NC(=O)CN1C(=O)c2cccc3cccc1c23 | 57
CS(=O)(=O)N(CC(=O)Nc1ccccc1-c1ccccc1)c1ccc(Cl)cc1 | 23
CN(C)C(=O)COc1cc2oc(=O)c3c(c2cc1Cl)CCC3 | -6
COC(=O)c1ccccc1NC(=O)c1c(NC(=O)CN2CCCCCC2)sc2c1CCC2 | 33
Cc1nnc(SCC(=O)Nc2ccc(OC(F)(F)F)cc2)s1 | 3
Cc1ccc(OCC(=O)Nc2cccc3ncccc23)c(C)c1 | 36
COc1ccc(NC(=O)Nc2ccc3c(c2)CC(=O)N([C@@H](C)CO)C[C@H](C)[C@@H](CN(C)Cc2ccc(Oc4ccccc4)cc2)O3)cc1 | 119*
Cc1noc(C)c1S(=O)(=O)N(C)C[C@@H]1Oc2c(NS(=O)(=O)c3cccs3)cccc2C(=O)N([C@H](C)CO)C[C@@H]1C | 2
Cc1noc(C)c1NC(=O)N(C)C[C@H]1Oc2c(NS(C)(=O)=O)cccc2C(=O)N([C@H](C)CO)C[C@H]1C | 24
C[C@H]1CN([C@@H](C)CO)C(=O)c2cccc(NC(=O)Nc3cccc4ccccc34)c2O[C@H]1CN(C)CC1CC1 | 18
C[C@H](CO)N1C[C@H](C)[C@H](CN(C)C(=O)NC2CCCCC2)Oc2ccc(NC(=O)CCCN(C)C)cc2C1=O | 10
COc1ccc(CN(C)C[C@@H]2Oc3ccc(NC(=O)Nc4ccc5c(c4)OCO5)cc3C(=O)N([C@@H](C)CO)C[C@H]2C)cc1 | 5
C[C@H]1CN([C@@H](C)CO)C(=O)c2cccc(NC(=O)c3ccc(-c4nccs4)cc3)c2O[C@@H]1CN(C)C(=O)NC1CCCCC1 | 4
C[C@@H]1CN([C@H](C)CO)C(=O)c2cc(NC(=O)CCC(F)(F)F)ccc2O[C@@H]1CN(C)Cc1ccc(C(=O)Nc2ccccc2N)cc1 | 104*
Cc1ccc(S(=O)(=O)N(C)C[C@H]2Oc3c(NC(=O)C4CC4)cccc3C(=O)N([C@@H](C)CO)C[C@H]2C)cc1 | 20
CC1=[N+]([O-])C(C)(C)C(c2ccc(Cl)cc2)=[N+]1[O-] | -5
C[C@H]1CN([C@@H](C)CO)C(=O)Cc2cc(NC(=O)Nc3cccc4ccccc34)ccc2O[C@@H]1CN(C)S(=O)(=O)c1ccccc1 | -10
CCOC(=O)c1csc(NC(=O)c2ccc(S(=O)(=O)N(CC)CC)cc2)n1 | -5
COc1ccc(S(=O)(=O)Nc2ccc3c(c2)C(=O)N([C@H](C)CO)C[C@H](C)[C@H](CN(C)C(=O)Nc2ccc(C(F)(F)F)cc2)O3)cc1 | 38
C[C@@H]1CN([C@H](C)CO)C(=O)c2cc(NS(=O)(=O)c3cccs3)ccc2O[C@@H]1CN(C)Cc1ccccc1 | -3
Cc1ccc(S(=O)(=O)Nc2ccc3c(c2)C(=O)N([C@H](C)CO)C[C@H](C)[C@@H](CN(C)Cc2ccc4c(c2)OCO4)O3)cc1 | 17
O=[n+]1cc(-c2ccc(F)cc2)n([O-])c2c1CCC2 | 25
C[C@@H]1CN([C@@H](C)CO)C(=O)c2cc(NS(=O)(=O)c3ccccc3)ccc2O[C@@H]1CN(C)C | -5
Cc1ccc(NC(=O)CSc2ncn[nH]2)c(C)c1 | -12
COc1ccc(C(=O)O[C@H]2CC(C)=CC[C@]3(C)[C@@H]2[C@](O)(C(C)C)C[C@@H]3O)cc1 | 18
Cc1ccc(S(=O)(=O)N(C)C[C@@H]2Oc3c(NC(=O)c4nc5ccccc5s4)cccc3C(=O)N([C@@H](C)CO)C[C@@H]2C)cc1 | 12
C[C@@H]1O[C@H]2Oc3c(-c4ccc(O)c(O)c4)oc4cc(O)c(c(O)c4c3=O)-c3cc(ccc3O)/C=C\C(=O)OC[C@H]3O[C@@H](O[C@H]([C@H]1O)[C@H]2O)[C@H](O)[C@@H](O)[C@@H]3O | 14
C[C@H](CO)N1C[C@H](C)[C@H](CN(C)C(=O)Nc2ccccc2)Oc2ccc(NS(=O)(=O)c3ccccc3)cc2CC1=O | -11
O=C(COc1ccc(C(=O)Nc2ccccc2Cl)cc1)Nc1ccc(Oc2ccccc2)cc1 | -1
COc1ccc(S(=O)(=O)N(C)C[C@@H]2Oc3c(NS(=O)(=O)c4ccccc4)cccc3C(=O)N([C@H](C)CO)C[C@@H]2C)cc1 | 14
COc1cc(NC(=O)c2cnn3c(C(F)(F)F)cc(-c4ccco4)nc23)c(OC)cc1Cl | 32
C[C@H](CO)N1C[C@H](C)[C@H](CN(C)Cc2ccc(C(=O)O)cc2)Oc2ccc(NC(=O)Nc3ccc4c(c3)OCO4)cc2C1=O | -8
CC(C)NC(=O)N(C)C[C@@H]1Oc2c(NC(=O)c3cnccn3)cccc2C(=O)N([C@@H](C)CO)C[C@@H]1C | -5
Cc1noc(C)c1S(=O)(=O)N(C)C[C@@H]1Oc2ccc(NC(=O)CCCCCC(=O)Nc3ccccc3N)cc2CC(=O)N([C@H](C)CO)C[C@H]1C | 29
C[C@@H]1CN([C@H](C)CO)C(=O)c2cc(NS(=O)(=O)c3cn(C)cn3)ccc2O[C@@H]1CN(C)S(C)(=O)=O | -18
COC(=O)c1c(NC(=O)Cc2ccccc2[N+](=O)[O-])sc2c1CCCC2 | 33
CCOc1ccc(C(Nc2cccc(C)n2)c2ccc3ccc(C)nc3c2O)cc1 (stereo unspecified) | 106*
C[C@@H]1CCCCO[C@H](CN(C)C(=O)Nc2cccc3ccccc23)[C@@H](C)CN([C@H](C)CO)C(=O)c2cc(NC(=O)C3CCCCC3)ccc2O1 | 48
COc1ccccc1NC(=O)CSc1nc2ccc([N+](=O)[O-])cc2[nH]1 | 5
C[C@@H]1CN([C@@H](C)CO)C(=O)c2cccc(NS(=O)(=O)c3ccc(Cl)cc3)c2O[C@@H]1CN(C)C(=O)Nc1ccc(C(F)(F)F)cc1 | 121*
Cc1ccc(NC(=O)CSc2nnc(-c3ccncc3)o2)cc1C | -1
Cc1cc(NC(=O)CN(c2c(C)cccc2C)S(C)(=O)=O)ccc1Br | -5
COc1ccc(S(=O)(=O)Nc2ccc3c(c2)CC(=O)N([C@@H](C)CO)C[C@H](C)[C@@H](CN(C)C(=O)Nc2ccc(F)cc2)O3)cc1 | 17
O=C(Cn1nc(-c2cccc([N+](=O)[O-])c2)c2ccccc2c1=O)NCC1CCCO1 (stereo unspecified) | 6
O=C(O)CNc1ncnc2oc(-c3ccccc3)c(-c3ccccc3)c12 | 10
C[C@@H]1CCCCO[C@H](CN(C)CC2CCCCC2)[C@@H](C)CN([C@H](C)CO)C(=O)c2cc(NC(=O)CCCCCC(=O)Nc3ccccc3N)ccc2O1 | ?
O=c1cc(-c2ccccc2)oc2cc(O)ccc12 | -7
C=C1C2(C)OC(=O)C34OC2C2=C(CO)C5(CCC2(C)C13C(=O)OC4C)C(O)CC(=O)OC5(C)C (stereo unspecified) | 14
COc1ccccc1N1CCN(CCn2c(=O)[nH]c3c([nH]c4ccccc43)c2=O)CC1 | 14
C[C@H]1CN([C@@H](C)CO)C(=O)c2cc(NC(=O)CCN3CCOCC3)ccc2O[C@@H]1CN(C)Cc1ccncc1 | 8
C=C1C(=O)O[C@@H]2C[C@H](C)[C@@H]3CC(=O)C(C)=C3C[C@H]12 | 121*
COc1ccc(S(=O)(=O)N(C)C[C@H]2Oc3ccc(NC(=O)CCN4CCOCC4)cc3CC(=O)N([C@H](C)CO)C[C@H]2C)cc1 | 11
C[C@H]1CN([C@@H](C)CO)C(=O)c2cc(NS(=O)(=O)c3ccc(F)cc3)ccc2O[C@@H]1CN(C)CC1CCCCC1 | 10
Cc1ccc(-c2cc(C(F)(F)F)n3nc(C(=O)NCCN4CCOCC4)c(Cl)c3n2)cc1 | -7
CC(C)NC(=O)Nc1ccc2c(c1)C(=O)N([C@@H](C)CO)C[C@@H](C)[C@@H](CN(C)C(=O)NC(C)C)O2 | -5
C[C@@H]1CN([C@H](C)CO)C(=O)c2cccc(N(C)C)c2O[C@@H]1CN(C)S(=O)(=O)c1ccccc1 | 35

Next results follow:
SMILES | NOMO-1 viab
Nc1ncnc2c1c1nc3ccccc3nc1n2CCc1ccccc1 | -8
CC1=C(C(=O)Nc2ccc(Cl)cc2)C(c2cccnc2)n2ncnc2N1 (stereo unspecified) | 2
O=C(NN1C(=O)/C(=C\c2cccnc2)SC1=S)c1ccccc1 | 26
CS(=O)(=O)N(CC(=O)Nc1ccc(C(F)(F)F)cc1)c1ccc(Oc2ccccc2)cc1 | 109*
CC(C)NC(=O)Nc1ccc2c(c1)C(=O)N([C@@H](C)CO)C[C@H](C)[C@H](CN(C)S(=O)(=O)c1cn(C)cn1)O2 | 6
C[C@@H]1CN([C@H](C)CO)C(=O)c2cc(NC(=O)NC3CCCCC3)ccc2O[C@H]1CN(C)Cc1ccc(-c2ccccc2)cc1 | ?
C=CC(C)(O)CC/C=C(\C)CCC(O)C(C)(C)O (stereo unspecified) | 11
CCNC(=O)CCc1nc(-c2ccc(OC)cc2)no1 | -13
C[C@@H]1CN([C@H](C)CO)C(=O)c2cccc(NS(=O)(=O)c3ccc(F)cc3)c2O[C@@H]1CN(C)S(=O)(=O)c1ccc(Cl)cc1 | 29
Cc1noc(C)c1NC(=O)N(C)C[C@@H]1Oc2c(NC(=O)Nc3ccccc3)cccc2C(=O)N([C@H](C)CO)C[C@@H]1C | 18
Cc1nc2ccccc2n1CC(O)COc1ccc(C(=O)O)cc1 (stereo unspecified) | -1
CC(C)C(=O)Nc1ccc(S(=O)(=O)Nc2nccc(/C=C/c3ccccc3F)n2)cc1 | 2
C[C@@H]1CN([C@@H](C)CO)C(=O)c2cc(NC(=O)Cc3ccccc3)ccc2O[C@H]1CN(C)C(=O)Nc1ccc(C(F)(F)F)cc1 | 28
CC(C)S(=O)(=O)c1cscc1NC(=O)c1ccc(-c2cc(C(F)(F)F)nn2C)s1 | ?

Screens as filed in PubChem.

Only part of the results is shown; the hit share may differ from the screen's.
